# Screening results (PubChem)
# Tau fil binding: binds recombinant human tau filaments. P10636. recombinant tau filaments, thioflavin S fluorescence, 15 h; filaments grown with octadecylsulfate alongside compound. Potency, µM (titrated, usually from 57.1 µM), without a hit: top-dose activity change, negative = inhibition. 71,000 compounds, 2% hits;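 also: potency is read from the fitted curve at half-maximal effect; % is scaled to controls: 0 for no effect and ±100 for the full control effect; actives lower thioflavin S fluorescence by blocking filaments or displacing dye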
# Target sequence (P10636 whole entry, looked up): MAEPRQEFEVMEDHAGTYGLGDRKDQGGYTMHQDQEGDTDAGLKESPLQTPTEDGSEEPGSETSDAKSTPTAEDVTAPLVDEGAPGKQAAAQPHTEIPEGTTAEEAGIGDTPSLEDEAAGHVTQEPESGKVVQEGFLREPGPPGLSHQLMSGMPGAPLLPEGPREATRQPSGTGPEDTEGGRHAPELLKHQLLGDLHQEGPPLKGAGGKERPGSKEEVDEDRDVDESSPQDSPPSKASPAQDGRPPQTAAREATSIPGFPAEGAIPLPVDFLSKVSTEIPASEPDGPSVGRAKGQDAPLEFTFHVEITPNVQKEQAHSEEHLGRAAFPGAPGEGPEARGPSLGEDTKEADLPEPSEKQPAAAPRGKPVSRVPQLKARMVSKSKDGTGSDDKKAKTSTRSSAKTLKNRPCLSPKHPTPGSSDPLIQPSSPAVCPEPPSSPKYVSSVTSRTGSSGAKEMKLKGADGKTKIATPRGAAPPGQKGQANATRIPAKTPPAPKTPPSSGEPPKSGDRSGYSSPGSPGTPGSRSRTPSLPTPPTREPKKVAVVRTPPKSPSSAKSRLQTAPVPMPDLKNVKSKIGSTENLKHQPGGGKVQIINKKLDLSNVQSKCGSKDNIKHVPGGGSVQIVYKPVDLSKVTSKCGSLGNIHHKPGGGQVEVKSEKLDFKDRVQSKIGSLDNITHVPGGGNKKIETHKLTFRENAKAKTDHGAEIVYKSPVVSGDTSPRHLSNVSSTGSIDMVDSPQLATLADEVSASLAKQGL
#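 Recombinant tau protein (human, 1 uM final) plus 30 uM ODS in HEPES pH 7.4 with NaCl, DTT and thioflavine S. Compound present from the start; fluorescence at 510 nm after 15 h, 37 C.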
# Fluorescein autfl: compound fluoresces in the fluorescein spectral region. Compound autofluorescence, 480/540 nm, fluorescein-equivalent; active compounds read high. max fluorescein-equivalent concentration, M. 59,000 compounds, 0.91% hits. AID 593; in the data active = max fluorescein-equivalent concentration above about 10 nM; inconclusive = between about 1.1 nM and that limit
#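 Spectral profiling of library compounds in the fluorescein window (480 nm excitation, 540 nm emission) after 15 min at room temperature in pH 8.0 Tris (100 mM). Values are dye-equivalent concentrations.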
# Rhodamine fluor: rhodamine region autofluorescence. Rhodamine-region fluorescence, 547/598 nm, Tris buffer; active compounds read high. max dye-equivalent concentration, M. 59,000 compounds, 0.05% hits; in the data active = max dye-equivalent concentration above about 11 nM; inconclusive = between about 1.1 nM and that limit
#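 Read-out is relative fluorescence at 547 nm excitation and 598 nm emission, expressed as dye-equivalent concentration using rhodamine standards on every plate. Each compound was profiled across a concentration series after 15 min in 100 mM Tris, pH 8.0.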
# Luciferase inh: blocks Photinus pyralis firefly luciferase activity; purified firefly luciferase, luminescence, 8 min; Potency, µM (doses to about 57.1 µM), for the others: at the highest dose activity change, negative = inhibition, usual class: inhibitors; P08659; 72,000 compounds, 2.2% hits; also: potency is read from the fitted curve at half-maximal effect; % is scaled to controls: 0 for no effect and ±100 for the full control effect; nearly all actives have a fitted effect of over 40% in size
#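 Inhibition of light generation by firefly luciferase from ATP and luciferin was profiled with concentration-response curves per sample, ATP held at 10 uM within the enzyme's linear range. Plates were read by luminescence after an 8-minute ambient incubation.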
# USP2a inh: blocks human ubiquitin-specific protease USP2a; O75604; USP2a enzymatic assay, qHTS inhibition; Potency, µM (doses to about 38.3 µM), for the others: top-dose activity change, negative = inhibition, most hits filed as inhibitors; 60,000 compounds, 0.1% hits; AID 927;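 also: potency is read from the fitted curve at half-maximal effect; nearly all actives have a fitted effect of over 60% in size; plate controls were DMSO for no effect and NEM full inhibition control for full effect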
#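 USP2 core (20nM final) preincubated 30 min RT with compound, then Ub-PLA2 20nM and NBD C6-HPC 20uM final added; buffer 20mM Tris-HCl pH 8.0, 2mM CaCl2. Fluorescence Ex 460/Em 535 read at 0 and 2.5 h; normalized to NEM.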
# HADH2 inh: blocks human hydroxyacyl-CoA dehydrogenase type II. AID 886. Potency, µM (series often up to 57.1 µM), for the others: at the top dose activity change, negative = inhibition, most hits filed as inhibitors. recombinant HADH2, NADH fluorescence, beta-hydroxybutyryl-CoA. 73,000 compounds, 3.4% hits. Q99714; also: potency is read from the fitted curve at half-maximal effect; % is scaled to controls: 0 for no effect and ±100 for the full control effect; nearly all actives have a fitted effect of over 60% in size; many of its hits are not listed in these tables
# Target sequence (Q99714 whole entry, looked up, one chain of several): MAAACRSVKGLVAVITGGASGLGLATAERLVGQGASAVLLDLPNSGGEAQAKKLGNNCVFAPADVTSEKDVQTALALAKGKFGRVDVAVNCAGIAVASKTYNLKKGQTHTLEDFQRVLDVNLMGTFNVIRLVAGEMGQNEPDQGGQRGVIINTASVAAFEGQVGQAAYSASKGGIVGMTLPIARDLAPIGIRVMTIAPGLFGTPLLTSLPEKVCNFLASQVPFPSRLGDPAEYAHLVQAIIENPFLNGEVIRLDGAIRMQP
#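 NADH fluorescence (ex 360/em 450 nm) read every 30 s for 4 min; activity taken as last-minus-first time point difference. Enzyme 20 nM, NAD+ 1 mM, beta-hydroxybutyryl-CoA 90 uM, pH 9.0 Tris buffer.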
# TexasRed autofl: Texas Red region autofluorescence; Compound fluorescence, Texas Red channel, 547/618 nm; active compounds read high; max dye-equivalent concentration, M; 59,000 compounds, 0.06% hits; AID 587; in the data active = max dye-equivalent concentration above about 10 nM; inconclusive = between about 1.1 nM and that limit
#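 Compound titrations in 100 mM Tris pH 8.0 were incubated 15 min at room temperature and read at 547 nm excitation / 618 nm emission. Texas Red six-point standard curve on each plate converted fluorescence to dye-equivalent concentration.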
# HEK293 cAMP cs: counter-screen for TSHR agonists: cAMP increase in parental HEK293. parental HEK293 CNG cAMP sensor, membrane potential fluorescence. Potency, µM (titrated, usually from 57.1 µM), for inactives: top-dose activation, usual class: activators. 73,000 compounds, 2.5% hits. AID 938; also: potency is read from the fitted curve at half-maximal effect; % of control where 0% means no effect; nearly all actives have a fitted effect of over 55% in size
#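 Parental HEK 293 cells stably expressing a cAMP-gated CNG channel were loaded with membrane potential dye containing 100 uM RO 20-1724 for 60 min. Compound added for 30 min; depolarization read as fluorescence intensity at 590 nm.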
# ERK AVP inh: blocks ERK signaling stimulated by vasopressin; HEK293-V1b, vasopressin-stimulated pERK AlphaScreen; 72,000 compounds, 0.99% hits; AID 995; Potency, µM (highest dose often 57.5 µM), inactives show at the top dose activity, negative = inhibition, actives largely listed as inhibitors; also: potency is read from the fitted curve at half-maximal effect; % is scaled to controls: 0 for no effect and ±100 for the full control effect; nearly all actives have a fitted effect of over 55% in size
#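 HEK293 cells stably expressing V1b receptor, preincubated 30 min at 37 °C with compound, then stimulated 5 min with 25 nM vasopressin. Phospho-ERK by AlphaScreen SureFire after 5 h RT; normalized to DMSO and vasopressin; AC50 by Hill fit.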
# An asterisk follows results filed as active; i = inactive; ? = inconclusive; . = not tested or not shown; & = joins results of further samples; [ ] = another dose, or the depositor's remark. Unless noted, calls follow the shape of the dose curve; as a rule, active = well fitted curve in the direction sought with a large enough effect; inconclusive = small, poorly fitted or top-dose-only effect, or another doubt; inactive = no such curve, though single readings can be large; an effect the other way counts as inactive or inconclusive. A portion of the library (hit frequency here may not be typical).
SMILES,Tau fil binding,Fluorescein autfl,Rhodamine fluor,Luciferase inh,USP2a inh,HADH2 inh,TexasRed autofl,HEK293 cAMP cs,ERK AVP inh
CCNc1ncc2nc(-c3cc(F)cc(F)c3)c(=O)n(Cc3ccc(F)cc3)c2n1,-3%,i,i,0%[11.4 µM],76%[activator],16%,i,?,-1%
CCC(c1nnnn1CCOC)N(Cc1ccc(C)cc1)Cc1cc2cc(OC)ccc2[nH]c1=O (stereo not drawn),8%,i,i,3%,17%,-7%,i,28%,-22%
CN1CCc2c(sc(/N=C/c3ccco3)c2C(N)=O)C1,i,2.5e-08M*,i,-27%,12%,32µM*,i,12%,-5%
CC1=C(C(=O)OCC2CCCO2)C(c2ccncc2)C2=C(CC(C)(C)CC2=O)N1 (stereo not drawn),0%,?,i,-4%,4%,25µM*,i,4µM*,1%
O=c1[nH]c2cc3c(cc2cc1CN(Cc1nnnn1CC1CCCO1)C1CCCC1)OCO3 (stereo not drawn),i,?,i,-1%,13%,24%,?,13%,-5%
O=S(=O)(c1ccc2nc(-c3ccco3)c(-c3ccco3)nc2c1)N1CCOCC1,28%,?,i,-6%,16%,?,i,-5%,?
N#Cc1c(N)n(CCCN2CCOCC2)c2nc3ccccc3nc12,23%,i,i,0%,10%,25µM*,i,16%,-24%
COc1cc(C2NC(=O)NC(c3ccccc3)=C2C(C)=O)ccc1OCC(=O)O (stereo not drawn),47%,i,i,-8%,42%[activator],200%[activator],i,32µM*,-4%
CCC(=O)N1CCN(c2nc(-c3ccccc3)c3c(c2C#N)CCCC3)CC1,64%[11.4 µM],.,.,1%,-4%[7.66 µM],?,.,4µM*,?
Cc1cc(C2(c3cc(C)c(O)cc3C)OS(=O)(=O)c3ccccc32)c(C)cc1O,29%,.,.,.,.,-12%,.,28%,?
CCCn1nc(-c2ccccc2)c2nc3ccccc3nc21,390%,2e-07M*,i,1%,4%,24%,i,?,51%[activator]
COCCn1c(=O)c(-c2cccc(C#N)c2)nc2cnc(N(C)C)nc21,462%,i,i,1%[11.4 µM],30%,8%,i,-5%,3%
O=C(NCc1ccco1)c1cc2nc(-c3cccs3)cc(C(F)(F)F)n2n1,111%,.,.,1%,12%,20%,.,4%,-19%
COc1ccc(Oc2ncc3nc(-c4ccc(Cl)cc4)c(=O)n(C[C@H]4CCCO4)c3n2)cc1,-9%,i,i,2%[11.4 µM],147%[activator],3%,i,2%,-6%
N#Cc1sc2nc(-c3ccccc3)cc(-c3ccco3)c2c1N,2.5µM*,?,i,-10%,24%,7.9µM*,i,-2%,-24%
Nc1c(S(=O)(=O)c2cccs2)c2nc3ccccc3nc2n1Cc1cccs1,174%,?,i,-1%,31%[activator],258%[activator],i,?,-5%
N#Cc1c2c(c(=S)n(-c3ccccc3)c1N)CCCC2,340%[11.4 µM],.,.,-1%,57%[activator][7.66 µM],?,.,9%[11.4 µM],8%
Cn1cc(-c2nc3cnc(Oc4cccc(Cl)c4)nc3n(CCC#N)c2=O)c2ccccc21,329%,?,i,1%[11.4 µM],168%[activator],-6%,i,?,46%[activator]
Clc1ccc(C2Nc3ccccc3-n3cccc32)cc1 (stereo not drawn),75%,.,.,-6%,.,-1%,.,?,21%
CC(=O)Oc1c(C)c(C)c2c(c1C)CCC(C)(CCCC(C)CCCC(C)CCCC(C)C)O2 (stereo not drawn),.,.,.,.,-6%,.,.,.,22%&1%
Cc1occc1-c1nnc(SCC(=O)c2cc3ccccc3oc2=O)o1,10µM*,?,i,-1%,?,7.9µM*,i,6%,16µM*
O=c1c(-c2ccccc2)nc2cnc(N3CCOCC3)nc2n1Cc1cccs1,28%,?,i,0%[11.4 µM],120%[activator],-3%,i,14%,68%[activator]
Cc1nccn1-c1c2c(c(C#N)c3nc4ccccc4n13)CCC2,6%[11.4 µM],.,.,-6%,1%[7.66 µM],-13%[11.4 µM],.,0%[11.4 µM],-13%
Cc1cccn2c(=O)c3cc(C#N)c(=NC(=O)c4ccccc4)n(Cc4ccco4)c3nc12,.,.,.,.,.,53%[activator],.,-9%,.
Cc1ccc2nc3c(cc(C#N)c(=O)n3-c3nccs3)c(=O)n2c1,211%,i,i,3%,2%,?,i,0%,-16%
COCCn1c(=O)c(-c2cccs2)nc2cncnc21,i,?,i,1%[11.4 µM],-25%,?,i,18%,?
CN(C)c1ncc2ncc(=O)n(C[C@H]3CCCO3)c2n1,4%,i,i,-1%[11.4 µM],-5%,-9%,i,5%,?
Cc1ccc(C)n1-c1cccc(N)c1,-5%,i,i,0%,11%,0%,i,-7%,16%
Cc1cccn2c(=O)c3cc(C(=O)NCc4ccco4)c(=N)n(CCc4ccccc4)c3nc12,1.6µM*,?,i,-1%,31%[activator],54%[activator],i,-67%[inhibitor],-13%
CCOC(=O)C1=C(C)NC2=C(C(=O)C(C(=O)OCC)C(c3ccco3)C2)C1c1ccccn1 (stereo not drawn),273%,i,i,1%,21%,-21%,i,6%,-5%
N#Cc1cc2c(=O)n3ccccc3nc2n(Cc2cccnc2)c1=O,30%,?,i,4%,1%,3.2µM*,i,0%,-21%
CNc1nnc(-c2cc3ccccc3oc2=O)s1,212%,?,i,-15%,-7%,4%,i,?,-1%
CN1CCN(c2ncc3nc(-c4cccs4)c(=O)n(C[C@H]4CCCO4)c3n2)CC1,i,?,i,1%[11.4 µM],115%[activator],16%,i,9%,19%
CCn1c(=N)c(C(=O)NCc2cccnc2)cc2c(=O)n3cccc(C)c3nc21,-6%,?,i,1%,-3%,i,i,1%,-8%
Nc1c(C(=O)OCC2CCCO2)c2nc3ccccc3nc2n1-c1ccc2c(c1)OCCO2 (stereo not drawn),-2%,?,i,-11%,44%[activator],19%,i,4%,20µM*
C=C(C)COc1ccc(-c2nc(N)ncc2Oc2ccc(OC)cc2)c(O)c1,?,i,i,-12%,?,1%,?,3%,-21%
COc1ccc2cc(CN(CCCN3CCOCC3)Cc3nnnn3C3CCCC3)c(=O)[nH]c2c1,13%,i,i,3%,.,11%,i,?,-3%
CCCCn1c(NC(=O)CC)c(C#N)c2nc3ccccc3nc21,406%,?,i,-3%,-1%,21%,?,25µM*,-28%
O=C(Nc1cnn(Cc2ccccc2)c1)c1cc2nc(-c3ccco3)cc(C(F)(F)F)n2n1,-20%,i,i,0%,38%[activator],37%[activator],i,-23%,-30%
COc1ccc(-c2nc3cnc(N4CCN(C)CC4)nc3n(CCC#N)c2=O)cc1,242%,i,i,1%[11.4 µM],57%[activator],23%,i,27%,2%
Cc1oc(C)c2c(=O)ccc3c(c12)OC(N)=C(C#N)C3c1ccccc1Cl (stereo not drawn),i,1.5e-08M*,i,1%,36%[activator],?,i,-2%,-20%
O=C(Nc1nc(-c2cc3ccccc3oc2=O)cs1)c1ccco1,128%,.,.,-5%,.,6%,.,3%,.
CCNc1ncc2nc(-c3ccc(F)cc3)c(=O)n(-c3ccc(OC)cc3)c2n1,i,i,i,2%[11.4 µM],62%[activator],4%,i,26%,-17%
Cc1cc(C)c2c(n1)nn1c(N3CCOCC3)cc(C)nc21,19%,i,i,1%,-5%,25µM*,i,3%,5%
COc1ccc(CNc2oc(-c3cccc4ccccc34)nc2C#N)cc1,i,i,i,1%,4%,25µM*,?,13%,22%
Fc1ccc(Br)cc1C1C=C(c2cccnc2)Nc2ncnn21 (stereo not drawn),i,.,.,-3%,.,-2%,.,?,?
COCCn1c(=NC(=O)c2ccc3c(c2)OCO3)c(C#N)cc2c(=O)n3cccc(C)c3nc21,20%,?,i,1%,-4%,21%,i,-4%,11%
O=c1oc2ccc3ccccc3c2cc1-c1nnc(-c2ccccc2)o1,-24%,?,i,-6%,.,i,i,-39%[inhibitor],-13%
Cn1cccc1C(=O)N1CCC2(CC1)CN(c1ccccn1)C2,-4%,i,i,2%[11.4 µM],-9%,-21%,i,14%,-16%
NC(=O)c1cccc2c3c([nH]c12)CCCC3,246%,.,.,-29%,15%,?,.,0%,?
COCCn1c(=N)c(C(=O)NCCc2ccc(OC)cc2)cc2c(=O)n3cccc(C)c3nc21,2µM*,i,i,1%,19%,21%,i,-56%[inhibitor],-4%
O=c1c2ccccc2c(/C=N/n2cnnc2)c(O)n1-c1ccccc1F,446%,1.3e-08M*,i,4%,-1%,?,i,-12%,-2%
CCCCN(C)CCn1c(=S)[nH]c2ccc(N3CCOCC3)cc2c1=O,3%,i,i,0%,9%,-4%,i,-14%,0%
CCCOC(=O)C1=C(C)NC2=C(C(=O)C(C(=O)OC)C(C)C2)C1c1ccc(N(CC)CC)cc1 (stereo not drawn),-20%,i,i,0%,27%,-5%,i,-6%,-18%

# 2 consecutive compounds already listed, for reference:
SMILES,Tau fil binding,Fluorescein autfl,Rhodamine fluor,Luciferase inh,USP2a inh,HADH2 inh,TexasRed autofl,HEK293 cAMP cs,ERK AVP inh
CCCCN(C)CCn1c(=S)[nH]c2ccc(N3CCOCC3)cc2c1=O,3%,i,i,0%,9%,-4%,i,-14%,0%
CCCOC(=O)C1=C(C)NC2=C(C(=O)C(C(=O)OC)C(C)C2)C1c1ccc(N(CC)CC)cc1 (stereo not drawn),-20%,i,i,0%,27%,-5%,i,-6%,-18%
